# Screens deposited in PubChem BioAssay by National Center for Advancing Translational Sciences (NCATS).
# Six1-Eya2 inh = Six1/Eya2 interaction inhibition | Q15475+O00167 | AlphaScreen GST-Six1/His-Eya2 binding, biochemical; active compounds read low; control for the full effect not named in the record | activity change, % (test concentration not listed) | actives 0.56% (n = 360,000) | AID 651725; in the data active = activity change below about -65%; inconclusive = about -30% to -65%; inactive = above about -30%; also: % is scaled to controls: 0 for no effect and ±100 for the full control effect
#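 Compounds are tested against tagged Six1 and Eya2 proteins bridged by glutathione donor and nickel acceptor beads; after a one-hour incubation at 37 °C without light, AlphaScreen emission is recorded.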
# PINK1 expr mod = PINK1 expression modulation. PINK1 immunofluorescence, high-content cytometry, 24 h. Potency, µM (titrated, usually from 76.6 µM), inactives show at the top dose activation (PINK1 increase), most hits filed as activators. actives 0.2% (n = 410,000); active = well fitted activation curve with a large enough effect; inconclusive = small, poorly fitted or top-dose-only effect; inactive = flat fitted curve, though single readings scatter; cell line not stated here;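 also: potency is read from the fitted curve at half-maximal effect; % of control where 0% means no effect; nearly all actives have a fitted effect of over 65% in size; a mitochondrial uncoupler was the plate control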
#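 Measures PINK1 amount and localization on or inside mitochondria by immunofluorescence. Stable cells get compounds at 5 concentrations for 24 hours before fixation and staining; CCCP controls included.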
# D2 agonist = human D2 receptor agonism in beta-arrestin assay. P14416. DiscoveRx PathHunter D2 beta-arrestin, luminescence, 90 min; 100% = 57 uM dopamine signal. activation, % (no concentration beside the values). actives 0.084% (n = 360,000). AID 624465; in the data active = activation above about 40%; inconclusive = about 15% to 40%; inactive = below about 15%; also: compound concentration not given in the record; the text of the record calls up to 30% inactive
# Target sequence (P14416 whole entry, looked up): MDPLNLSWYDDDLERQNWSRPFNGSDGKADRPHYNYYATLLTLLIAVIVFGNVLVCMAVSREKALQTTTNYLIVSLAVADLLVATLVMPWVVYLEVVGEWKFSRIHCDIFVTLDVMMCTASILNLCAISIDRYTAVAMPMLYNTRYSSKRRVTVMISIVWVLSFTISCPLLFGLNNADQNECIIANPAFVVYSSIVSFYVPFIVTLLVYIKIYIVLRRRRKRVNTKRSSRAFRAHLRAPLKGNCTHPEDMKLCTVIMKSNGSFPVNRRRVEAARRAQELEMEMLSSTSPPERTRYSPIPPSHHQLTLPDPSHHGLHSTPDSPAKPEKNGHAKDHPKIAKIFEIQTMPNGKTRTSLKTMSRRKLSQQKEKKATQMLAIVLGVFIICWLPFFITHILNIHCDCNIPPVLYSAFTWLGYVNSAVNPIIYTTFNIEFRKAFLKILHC
#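 DiscoveRx PathHunter D2 beta-arrestin cells (2,100/well) attached overnight, then compound-stimulated 90 min at 37 C in HBSS/10 mM HEPES/0.1% Tween-20 buffer; beta-galactosidase complementation read by luminescence after 1 h at ambient temperature. Dopamine 57 uM final (EC100) as control.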
# CtBP-E1A blk = blocks the CtBP interaction with E1A; activity change, % (concentration not given with the values); AlphaScreen GST-E1A/His-CtBP binding, 1536-well; active compounds read low; control for the full effect not named in the record; actives 0.49% (n = 340,000); in the data active means activity change below about -65%; inconclusive means about -30% to -65%; inactive means above about -30%; also: % is scaled to controls: 0 for no effect and ±100 for the full control effect
#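 Homogeneous bead-based format: GST-tagged E1A captured on glutathione donor beads, His-tagged CtBP on nickel acceptor beads; compounds precede bead addition by 2 h at 37 °C.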
# TRPML1 inh = inhibitors of human TRPML1 channel. Q9GZU1. TRPML1-inducible cells, Ca2+ dye fluorescence, FDSS; active compounds read low; inhibition of EC80 agonist-evoked calcium signal. activity change, negative = inhibition, % (concentration not given with the values). actives 0.02% (n = 390,000). AID 624415; in the data active means activity change below about -50%; inconclusive means about -30% to -50%; inactive means above about -30%;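 also: stimulus is agonist 54-4 at its EC80 concentration; % is scaled to controls: 0 for no effect and ±100 for the full control effect; the text of the record puts the active cut at -80%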
# Target sequence (Q9GZU1 whole entry, looked up): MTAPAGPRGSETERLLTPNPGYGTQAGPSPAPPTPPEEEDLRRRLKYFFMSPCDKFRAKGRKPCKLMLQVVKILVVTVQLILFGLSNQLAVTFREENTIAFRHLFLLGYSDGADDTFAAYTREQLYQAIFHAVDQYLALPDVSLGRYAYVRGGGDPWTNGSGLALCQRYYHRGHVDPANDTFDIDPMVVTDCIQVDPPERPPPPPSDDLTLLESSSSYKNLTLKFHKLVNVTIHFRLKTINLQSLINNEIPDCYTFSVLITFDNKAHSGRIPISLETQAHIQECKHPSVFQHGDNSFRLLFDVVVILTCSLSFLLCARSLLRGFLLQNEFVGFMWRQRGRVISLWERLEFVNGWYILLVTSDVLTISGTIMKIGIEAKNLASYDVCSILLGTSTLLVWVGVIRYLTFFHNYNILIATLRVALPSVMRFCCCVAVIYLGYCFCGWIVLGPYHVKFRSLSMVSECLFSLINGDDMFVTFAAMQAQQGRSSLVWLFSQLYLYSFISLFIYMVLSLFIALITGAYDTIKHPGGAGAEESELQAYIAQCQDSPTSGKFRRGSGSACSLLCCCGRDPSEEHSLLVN
#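 Tet-induced TRPML1-DL cells loaded with Ca8 no-wash calcium dye were read kinetically on FDSS. Compound addition was followed by EC80 agonist 54-4 (4 uM final); inhibition was read over 110 s.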
# TRPML1 agonist = human mucolipin-1 channel agonism | actives 0.12% (n = 410,000) | activation, % (no concentration beside the values) | Q9GZU1 | TRPML1-expressing cells, Ca2+ dye fluorescence, FDSS; host cell line not named in the record; reference of the full effect not given here | AID 624414; in the data active = activation above about 50%; inconclusive = about 30% to 50%; inactive = below about 30%; also: 0% is about no effect; the text of the record puts the active cut at 80%
#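 Kinetic FDSS Ca2+ read in Tet-induced TRPML1-DL cells (ABD Ca8 dye plus quencher, 45-90 min RT loading): baseline, then compound, then 110 s agonist window; EC80 agonist 54-4 at 4uM final added afterwards for a 110 s antagonist window.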
# Active calls of the source: *; ? = inconclusive; . = no result given; [ ] = another dose, or the depositor's remark.
# The line under a structure holds: Six1-Eya2 inh, PINK1 expr mod, D2 agonist, CtBP-E1A blk, TRPML1 inh, TRPML1 agonist
> O=C(O)CNC(=O)C1CCCN1C(=O)CNC(=O)OCc1ccccc1 (stereo not drawn)
  25.8, -2.6%, -2.6, 10.7, -13.8, 1.1
> Cc1ccc(-n2c(N)c(C(=O)N3CCOCC3)sc2=S)cc1
  -1.4, 3.2%[38.3 µM], -3.7, -1.4, -16.6, 2.8
> COc1ccc(S(=O)(=O)CCc2nc3ccccc3s2)cc1
  -2.4, 0.9%, -3.3, 1.6, 31.5, -0.8
> N#CC1(NC(=O)COC(=O)c2ccccc2[N+](=O)[O-])CCCCC1
  -0.3, 0.1%, -0.6, -2.7, -12.9, 0.5
> COc1nc(OC)nc(N2CCC(C(=O)NCc3ccc(F)cc3)CC2)n1
  3.0, ., -1.1, 0.2, 3.6, 0.9
> O=C1COc2ccc(C(=O)COC(=O)CNC(=O)c3ccco3)cc2N1
  -0.4, -2.0%, -3.6, -7.5, 25.4, 4.0
> S=c1[nH]nc(CSc2nc3ccccc3s2)n1Cc1ccccc1
  -6.9, -0.9%, -0.3, -17.7, -3.3, 2.5
> Cc1cc(C)n(C(=O)c2cc(F)c(F)cc2C)n1
  -4.8, 0.4%, -2.4, -1.8, -1.8, 1.6
> CCN(C(=O)COC(=O)/C=C/c1nc2ccccc2s1)C1CCS(=O)(=O)C1 (stereo not drawn)
  4.4, 3.7%, -4.3, -9.3, -8.5, -1.4
> Cn1c(SCC(=O)Nc2sccc2C(N)=O)nc2ccccc2c1=O
  -0.9, 4.1%, 1.9, -2.7, 5.2, 0.5
> NC(=S)Nc1cccc(O)c1
  -2.1, 0.5%, -8.3, ., 8.8, 0.5
> CCc1ccc(N(C(=O)c2snc(C(N)=O)c2N)C(C(=O)NCC2CCCO2)c2ccco2)cc1 (stereo not drawn)
  -5.0, -2.5%, -1.8, 4.1, -7.4, -0.7
> CC1=C(C(=O)Nc2c(C)cc(C)cc2C)C2(CCN(C(C)C)CC2)OC1=O
  ., 1.4%, ., ., -4.9, -0.2
> Cc1cccnc1N(C(=O)Nc1cccc(Cl)c1)C1=NCC(C)(C)S1
  19.9, -1.7%, -4.1, 12.4, -17.2, -0.5
> CC1CC(C)CN(C(=S)NC2CCCCC2)C1 (stereo not drawn)
  7.6, 8.0%, -0.3, 5.8, -13.5, 0.6
> S=c1[nH]nc(C2CCCCC2)n1/N=C/c1cccc(Cl)c1Cl
  -19.6, 6.7%, -1.0, -8.5, 52.8, 0.5
> COc1ccc(OC)c2nc(-c3cccnc3)ccc12
  -17.3, 3.6%, -1.5, -2.1, 10.0, -1.6
> COc1cccc2[nH]c3c(=O)n(CCN(C)C)cnc3c12
  10.0, -1.1%, -2.4, 11.1, 0.1, 0.0
> CCNC(=O)COC(=O)CCNC(=O)c1cccc(C)c1
  0.0, -0.5%, -1.8, 1.5, 23.7, 0.5
> O=C(CSc1nnc2ccccn12)NNC(=O)c1ccccc1
  1.1, 0.3%, -2.6, 13.6, 1.4, 0.1
> O=C(COc1ccc(Br)cc1)Nc1ccc([N+](=O)[O-])cn1
  -8.3, 4.8%, 1.0, -4.8, 5.3, 0.7
> Cc1cccc(CNS(=O)(=O)c2ccc3[nH]c(=O)ccc3c2)c1
  ., -4.3%, ., ., -17.5, 0.2
> CCS(=O)(=O)N1CCN(c2cnn(-c3ccccc3)c(=O)c2Cl)CC1
  3.8, 2.4%, -0.3, ., -5.2, 0.1
> CN(C)S(=O)(=O)c1cc(NC(=O)c2cc(=O)c3ccccc3o2)ccc1Cl
  -26.2, 3.8%, 7.4, -22.0, 3.2, -0.4
> CCC(=O)Nc1cc(C(F)(F)F)ccc1N1CCOCC1
  38.8, 0.3%, -0.8, 1.4, -5.6, 3.4
> Fc1cnc(Cl)nc1N1CCN(c2ccccc2)CC1
  -4.1, 0.9%, -4.6, -6.1, 11.6, 1.1
> S=c1[nH]nc(Cc2ccccc2)n1Cc1ccco1
  -13.2, 7.8%[38.3 µM], -1.9, -13.4, 29.7, -0.2
> CCCCCNC(=O)c1ccc2c(c1)ncn2-c1ccc(OC)cc1
  -7.8, 0.8%, -5.3, ?, 59.7, 1.8
> CCCn1c(=O)sc2cc(NC(=O)COc3ccc(Cl)cc3)ccc21
  ., -0.2%, ., ., 59.4, 0.1
> CCOc1ccccc1C(=O)Nc1ccc(NC(=O)c2ccccc2)cc1
  -1.2, 6.0%, 0.4, ., -3.2, -1.4
> COc1ccc(/C=C/CN2CCN(CCc3ccccc3)C(CCO)C2)cc1 (stereo not drawn)
  -2.8, 0.9%, -2.4, -6.3, -3.7, -0.3
> Cc1cc(N=Nc2c(O)c3ccccc3[nH]c2=O)ccc1N=Nc1ccc(C(=O)N(C)C)cc1
  -8.9, 11.9%, 6.9, ., -0.7, -0.4
> Cc1ccc(S(=O)(=O)Nc2ccc3c(c2)nc(CCN2CCOCC2)n3C)cc1
  -0.4, 0.7%, 2.4, 0.0, -25.9, 0.7
> Nc1cc(Br)cc2c1[nH]c(=O)c1ccccc12
  -2.3, 0.6%, -0.8, 0.9, -9.0, -1.0
> COCCN(Cc1cc2c(C)cc(C)cc2nc1Cl)C(=O)c1ccccc1F
  -0.7, 7.2%, -1.8, ., -11.4, 1.3
> Cc1ccc2c(c1)c(C)c(C)n2CC(O)CN1CCOCC1 (stereo not drawn)
  -8.6, -1.2%, -2.1, -0.5, -1.0, -0.8
> c1ccc(COc2ccc3nocc3c2)cc1
  11.2, 1.5%, ?, 13.3, -0.2, -0.4
> COC(=O)c1cccc(-n2c(C)cc(/C=C3\SC(=O)NC3=O)c2C)c1
  -15.1, 1.7%, -1.3, -3.2, 11.9, -0.6
> CC1CN(C(=S)NC(=O)c2cccc([N+](=O)[O-])c2)CC(C)O1 (stereo not drawn)
  -2.2, -1.4%, -2.0, 3.3, 0.2, -0.7
> CC(=O)Oc1ccc(-c2cccc(C(=O)Oc3ccccc3)c2)cc1
  33.0, 11.9%, -0.2, 10.7, -2.8, 1.7
> CCN(CC)Cc1nc2c(c(=O)[nH]1)C1(CCCC1)Cc1ccccc1-2
  -13.6, ?, 0.1, 1.6, -3.0, 0.9
> CC1(C(=O)Oc2ccccc2)Cc2ccccc2C(=O)O1 (stereo not drawn)
  5.4, -0.6%, -2.3, ., 25.9, -0.7
> O=C(COc1cc2oc(=O)c3c(c2cc1Cl)CCC3)NCC1CCC(C(=O)O)CC1 (stereo not drawn)
  0.3, 0.6%, -2.0, -18.2, 0.5, -0.1
> CC1CCN(C(=O)CSc2nnc(Cn3c(=O)sc4ccccc43)n2C)CC1
  -1.7, 1.5%, 2.6, 2.7, -11.0, 0.5
> O=C(COC(=O)/C=C/c1ccco1)NC1CCCCC1
  -15.0, 1.5%, -3.7, -1.4, 13.1, 0.3
> COc1ccc(-c2nc(-c3cccc(C(F)(F)F)c3)no2)cc1OC
  6.6, 1.3%, -3.2, -15.5, 10.6, 1.8
> CCOc1ccc(CCNC(=O)c2ccc(S(=O)(=O)N3CCCC3)cc2)cc1OCC
  0.6, 0.5%, -4.5, -6.1, 0.9, 2.7
> COC(=O)COc1ccc(S(=O)(=O)NCC2CCCO2)cc1Cl (stereo not drawn)
  -0.6, 10.4%[38.3 µM], 1.1, 10.5, 3.1, -0.4
> COc1cc(N)c(Br)cc1C(=O)O
  0.0, -3.0%, -0.7, -12.8, 8.1, 1.3
> Cc1nc2c(C)cccn2c(=O)c1NC(=O)c1ccc2c(c1)OCO2
  9.9, -0.4%, 1.4, -3.4, -5.4, -0.3
> CCOc1cc(N2CCOCC2)c(OCC)cc1NC(=O)COc1cccc(CC)c1
  -27.1, 1.0%, -1.5, ., 26.0, -0.8
> CSc1ccc(CN(C)CC(=O)Nc2ccccc2C(=O)NC2CC2)cc1
  0.6, 0.9%, 0.9, 4.0, 27.4, -0.2
> Cc1cc(C)n2cc(CSCC(=O)O)nc2n1
  0.7, -0.8%, 2.7, -1.1, 19.5, 0.3
> COC(=O)c1ccc(CSc2nnc(CNC(=O)COc3ccc(Cl)cc3)o2)o1
  -2.7, -2.4%, -2.3, -1.4, 8.7, 2.9
> CC(Oc1ccccc1)c1ccnc2nc(N3CCOCC3)nn12 (stereo not drawn)
  0.4, 1.1%, -2.6, -22.5, 0.2, -0.3
> Cc1ccc2c(c1)C(O)(C1COC(C)(C)CC1=O)C(=O)N2C (stereo not drawn)
  1.4, 10.8%, 0.1, 6.5, -1.1, -0.7
> CC(C)OC(=O)c1c(NC(=O)c2cccs2)sc2c1CCCC2
  8.0, ?, 0.6, 10.6, 1.5, 0.0
> C=CCn1cc(-c2ccc(Cl)cc2)cc(C#N)c1=O
  9.8, 3.8%, -0.9, 7.4, 8.2, 0.2
> Clc1ccccc1-c1nc(-c2ccc(Br)o2)no1
  23.2, 4.8%, -3.9, 34.9, -7.7, 1.4
> COc1ccc(C2(Nc3cccc(F)c3)C(=O)c3ccccc3C2=O)cc1
  ., 0.0%, ., ., 11.7, 1.2

# The list continues.
# The line under a structure holds: Six1-Eya2 inh, PINK1 expr mod, D2 agonist, CtBP-E1A blk, TRPML1 inh, TRPML1 agonist
> CC(C)CCN1C(=O)CCC1(C)C(=O)NC1CCCCCCC1 (stereo not drawn)
  1.9, 9.4%[38.3 µM], -3.9, 6.4, -11.6, 2.8
> CC1Cc2cc(/C(O)=C3/C(=O)C(=O)N(CCCn4ccnc4)C3c3ccncc3)ccc2O1 (stereo not drawn)
  -0.3, ?, 1.0, -1.8, 6.7, -0.2
> COc1ccccc1C(CNC(=O)c1cccc(NS(=O)(=O)c2ccc(Br)cc2)c1)N(C)C (stereo not drawn)
  -0.3, -1.5%, 0.2, -1.0, -1.2, 11.9
> O=C(/C=C/c1ccccc1)Nc1nc2n(n1)C(c1ccc(Cl)cc1)C=C(c1ccccc1)N2 (stereo not drawn)
  ., -0.2%, ., ., 9.4, 0.2
> O=C(CCc1ccccc1)Nc1ccccc1C(F)(F)F
  12.6, 1.8%, -1.0, 6.1, -22.9, 1.5
> O=C(NCc1ccccc1)/C(NC(=O)c1ccccc1)=C(/Sc1ccccn1)c1ccccc1
  -1.1, 0.0%, -2.3, -2.1, 10.8, 3.1
> O=C(NC1CCCC1)C(c1ccccn1)N(Cc1ccc(F)cc1)C(=O)c1csnn1 (stereo not drawn)
  2.1, -0.4%, -3.8, 1.5, 32.9, -0.3
> CCNC(=S)N1CC(C)OC(C)C1 (stereo not drawn)
  1.0, 0.3%, -2.1, 1.7, 8.3, -0.9

# Profiles, quoted from the list.
# Shown for O=C(NCc1ccccc1)/C(NC(=O)c1ccccc1)=C(/Sc1ccccn1)c1ccccc1 = Six1-Eya2 inh: -1.1; PINK1 expr mod: 0.0%; D2 agonist: -2.3; CtBP-E1A blk: -2.1; TRPML1 inh: 10.8; TRPML1 agonist: 3.1
# Shown for O=C(/C=C/c1ccccc1)Nc1nc2n(n1)C(c1ccc(Cl)cc1)C=C(c1ccccc1)N2 (stereo not drawn) = Six1-Eya2 inh: .; PINK1 expr mod: -0.2%; D2 agonist: .; CtBP-E1A blk: .; TRPML1 inh: 9.4; TRPML1 agonist: 0.2
# Shown for O=C(CCc1ccccc1)Nc1ccccc1C(F)(F)F = Six1-Eya2 inh: 12.6; PINK1 expr mod: 1.8%; D2 agonist: -1.0; CtBP-E1A blk: 6.1; TRPML1 inh: -22.9; TRPML1 agonist: 1.5
